Choline anaer gr = inhibitors of anaerobic choline-dependent gram-negative bacterial growth; Gram-negative bacterium anaerobic choline minimal medium, absorbance growth; hits give low values; many inactives read as strong as hits in the columns shown; calls only; hit rate 0.2% among 55,000;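 active = growth z-score on choline under -2 at 7 or 20 h with little or no fall on glycerol, limits in tiers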;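 also: stock transfer was 300 nL into about 50 µL; the organism is E. coli; final concentration not given here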
Choline anaer gr early = second read-out of Choline anaer gr, no call of its own (marks repeat the call); z-score; measured here: choline growth z-score, timepoint 1;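 score of optical density at 7 h as mean of two plates; lower means less growth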
An asterisk follows results filed as active; i = inactive; & = joins results of further samples. Only part of the results is shown; rates above refer to the full screens.

entry | molecule | Choline anaer gr | Choline anaer gr early
1 | Cc1ccc(S(=O)(=O)N(CC(=O)N2CCN(c3ccc(F)cc3)CC2)Cc2ccccc2)cc1 | i | 0.67
2 | CN(C)C(=O)CSc1nc2nc[nH]c2c(=O)[nH]1 | i | -0.38
3 | Cc1cc(NS(=O)(=O)c2cc(-c3nc(C)c(C(=O)N4CCOCC4)s3)n(C)c2C)no1 | i | -0.26
4 | COc1ccc(-c2ccc(Nc3ccc(S(N)(=O)=O)cc3)nn2)cc1S(=O)(=O)N1CCCC1 | i | -1.8
5 | CCOC(=O)c1cc(NC(=O)c2ccc(Cl)cc2)ccc1N1CCOCC1 | i | 0.04
6 | CC(=O)Nc1ccc2c(c1)oc(=O)n2C(C)C | i | -0.94
7 | COC(=O)c1cc(C(=O)Nc2ccc(C)cc2)c(=O)[nH]c1C | i | -0.55
8 | CCOc1ccc(CCNc2nc3ccccc3nc2C(=O)OC)cc1OCC | i | 0.06
9 | CCCn1c(=O)[nH]c2cc(-c3noc(/C=C/c4ccc(OC)cc4)n3)ccc21 | i | 0.55
10 | O=C(CSc1nc2cc(C(=O)NC3CCCC3)ccc2c(=O)n1CC1CCCO1)c1ccc(F)cc1 (stereo unspecified) | i | 0.29
11 | CCC1Oc2cc(S(=O)(=O)N3CCCC(C(=O)NC(C)(C)CC)C3)c(C)cc2NC1=O (stereo unspecified) | i | -0.03
12 | COc1ccc(OC)c(CNS(=O)(=O)c2cc(-c3cnn4c(C)cc(C)nc34)ccc2OC)c1 | i | -0.12
13 | Cc1ccc(NS(=O)(=O)c2c(C)nc3sc4cc(C)ccc4n3c2=O)cc1 | i | 0.74
14 | Cn1nccc1-c1nc(-c2ccc(-c3csc(C4CC4)n3)cc2)no1 | i | 0.58
15 | Cn1cc(C(=O)NC2CCCC2)c2[nH]c(=O)n(-c3ccc(Cl)cc3)c(=O)c21 | i | -0.63
16 | CCCc1cc(=O)[nH]c(SCc2nc(-c3cc(Br)ccc3OC)oc2C)n1 | i | 0.19
17 | CC1CCC2(CC1)NCCN=C2NCc1ccccc1Cl (stereo unspecified) | i | -0.71
18 | Cc1nc(-c2cnccn2)nc2c1CC(=O)N2CC1CCCO1 (stereo unspecified) | i | 0.27
19 | CCCS(=O)(=O)N1CCCC(C(=O)NCCN2CCC(Cc3ccccc3)CC2)C1 (stereo unspecified) | i | -1.3
20 | O=C(CC1CCN(C(=O)c2cn(-c3ccccc3)nc2-c2ccccc2)CC1)Nc1ccccc1F | i | -0.33
21 | C=CCNC(=O)C1CCN(Cc2cn(C)c3ccc(OC)cc23)CC1 | i | -0.91
22 | O=C(c1ccc(F)cc1)N1CCc2cc(CNS(=O)(=O)c3ccc(Cl)cc3)ccc21 | i | 0.44
23 | Cc1nn(C)c(C)c1CCNS(C)(=O)=O | i | -0.67
24 | COc1cc(NS(=O)(=O)c2cc(-c3cc(C)no3)cs2)cc(OC)c1 | i | 0.05
25 | Cn1cc(S(=O)(=O)N2CCc3ccccc32)cc1C(=O)NCc1ccccn1 | i | 0.02
26 | COc1cccc(CNC(=O)c2ccc(Oc3nccnc3Sc3ccc(Cl)cc3)cc2)c1 | i | 0.52
27 | COc1ccc(NC(=O)Cn2cc(-c3nc(-c4ccc(C)cc4)no3)ccc2=O)c(OC)c1 | i | -1.3
28 | CC(C)c1cc(C2CCCN2Cc2ccc(F)cc2F)on1 (stereo unspecified) | i | 0.1
29 | Cc1ccc(S(=O)(=O)N(Cc2nc3nc(C)cc(C)n3n2)c2ccc(F)cc2)cc1 | i | -1.8
30 | CS(=O)(=O)c1ccc(C2=C(c3ccccc3)C(=O)OC2)cc1 | i | 0.7&0.3&0.37&0.83

4 compounds picked at random from the list so far, as already listed:
entry | molecule | Choline anaer gr | Choline anaer gr early
19 | CCCS(=O)(=O)N1CCCC(C(=O)NCCN2CCC(Cc3ccccc3)CC2)C1 (stereo unspecified) | i | -1.3
18 | Cc1nc(-c2cnccn2)nc2c1CC(=O)N2CC1CCCO1 (stereo unspecified) | i | 0.27
20 | O=C(CC1CCN(C(=O)c2cn(-c3ccccc3)nc2-c2ccccc2)CC1)Nc1ccccc1F | i | -0.33
26 | COc1cccc(CNC(=O)c2ccc(Oc3nccnc3Sc3ccc(Cl)cc3)cc2)c1 | i | 0.52

More records.
entry | molecule | Choline anaer gr | Choline anaer gr early
31 | CCN(C(=O)c1ccc(N2C(=O)C(C)(C)CS2(=O)=O)cc1)C1CCS(=O)(=O)C1 (stereo unspecified) | i | -0.37
32 | Cc1nc2nc(NCc3ccc(Cl)cc3)[nH]n2c(=O)c1CCC(=O)NC(C)C | i | 1.2
33 | O=C1c2ccccc2Sc2cc(-c3noc(-c4cnccn4)n3)ccc2N1C1CC1 | i | 0.38
34 | Cc1ccc(NS(=O)(=O)c2cc(-c3nc(C)c(C)s3)sc2C)cc1F | i | -0.16
35 | Cc1nc2nc3c(c(Nc4cccc(Cl)c4)n2n1)CCCC3 | i | -0.8
36 | COc1ccc(NC(=O)C2=CSCCO2)c(OC)c1 | i | 0.95
37 | CCc1nnc(-c2cc(S(=O)(=O)N3CCCC3)c[nH]2)o1 | i | -0.57
38 | COc1cccc(C(=O)N(Cc2cccnc2)c2nc3ccc(Cl)cc3s2)c1OC | i | 0.46
39 | CCN(CC)CCNC(=O)CCc1c(C)n(C)c2cc(-c3ccccc3C)nn2c1=O | i | 1.2
40 | Cc1ccc(NC(=O)C2Nc3cc(F)ccc3S(=O)(=O)N2)c(C)c1 (stereo unspecified) | i | -0.32
41 | CC(=O)Nc1nnc(Sc2c(C)nn(-c3ccc4nncn4n3)c2C)s1 | i | 1.4
42 | O=C(c1cnc2ccccc2c1NCc1ccccc1Cl)N1CCOCC1 | i | -0.56
43 | Cc1ccc(-c2ccnc3cc(C(=O)Nc4c(C)cc(C)cc4C)nn23)cc1 | i | 0.49
44 | COCC(=O)Nc1nnc2n1CCCS2 | i | -0.42
45 | O=C(O)c1cc(N2CCN(c3ccc(Cl)cc3)CC2)nc2ccc(NC(=O)C3CCC3)cc12 | i | 0.91
46 | COc1cc2c(cc1OC)CN(C(=O)C1CCCN1S(=O)(=O)c1ccc(F)cc1)CC2 (stereo unspecified) | i | 0.31
47 | O=C(Nc1ccc2c(c1)OCCO2)NC1CCN(c2ccc(F)cc2)C1=O (stereo unspecified) | i | 0.66
48 | COc1ccccc1N1CCN(C(=O)Cn2c(=O)n3nc(C)nc3c3ccccc32)CC1 | i | -0.78
49 | CC(C)CCNC(=O)CN1N=C(c2ccccc2F)c2cc(Cl)ccc2S1(=O)=O | i | -0.45
50 | Cc1nc(C)c(-c2cc(C(=O)O)n[nH]2)s1 | i | 0.23
51 | Cc1ccccc1NC(=O)c1cnc2ccccn2c1=O | i | 0.62
52 | COC(=O)c1ccsc1NC(=O)Cn1c2ncccc2c(=O)n1-c1ccc(C)c(C)c1 | i | -0.63
53 | Cc1[nH]nc2c1C(c1ccc(C(=O)O)cc1)CC(=O)N2 (stereo unspecified) | i | 0.66
54 | COc1cccc(CNC(=O)CCCN2C(=O)c3cccnc3Oc3ccc(Cl)cc32)c1 | i | -0.79
55 | Clc1ccc(-c2nnc(-c3nc(NCc4cccnc4)c4ccccc4n3)o2)cc1 | i | -0.06
56 | COc1ccccc1Cn1c(=O)c2sccc2n2c(=S)[nH]nc12 | i | 1.5
57 | Cc1ccc(-n2nc(N3CCCN(C(=O)Nc4cc(C)cc(C)c4)CC3)ccc2=O)cc1 | i | 0.05
58 | O=C(CCCc1nc2cccnc2n1Cc1ccccc1)NC1CCCCC1 | i | 0.44
59 | COCC(=O)N1CCc2c(c(C(=O)N3CCCC(C(=O)Nc4ccccc4)C3)nn2C)C1 (stereo unspecified) | i | -0.78
60 | CCCn1cnc2cc(-c3noc(CNC(=O)Cc4ccc(Cl)cc4)n3)ccc21 | i | 0.9
61 | Cc1nc(C)c(-c2nc(Cn3cnc(S(=O)(=O)N4CCCCC4)c3)no2)s1 | i | 1.1
62 | N[C@@H](Cc1cnc[nH]1)C(=O)O | i | 0.16
63 | O=C1CCC(=O)N1c1nc2n(n1)C(c1ccccc1Cl)C=C(c1ccc(Cl)cc1)N2 (stereo unspecified) | i | 0.35
64 | CCOc1ccc(CCNC(=O)c2ccc3c(c2)NC(=O)C2CCCN32)cc1OCC (stereo unspecified) | i | -0.27
65 | Cc1csc2nc(COC(=O)CNC(=O)c3ccc(F)cc3)cc(=O)n12 | i | -0.09
66 | c1ccc(OCc2nn3c(-c4ccccn4)nnc3s2)cc1 | i | 0.36
67 | O=C(Nc1ccc(F)cc1)c1cc2ccccn2n1 | i | -0.73
68 | Cn1ccc2cc(S(=O)(=O)N3CCC(C(=O)NCC4CCCO4)CC3)ccc21 (stereo unspecified) | i | 0.01
69 | COC(=O)c1ccc(COc2cc(O)c3c(=O)cc(-c4ccccc4)oc3c2)cc1 | i | -0.21
70 | O=C1c2cnccc2CN1c1cc(F)ccc1F | i | -1.2
71 | Cc1ccc(-c2csc(Cc3nc(-c4cccc(F)c4)no3)n2)cc1C | i | 1
72 | O=C(CN1C(=O)CCc2cc(S(=O)(=O)N3CCCC3)ccc21)NCCc1nc2ccc(F)cc2[nH]1 | i | -0.23
73 | O=c1c2cc(-c3ccc(Br)cc3)nn2cnn1Cc1nc(-c2ccc3c(c2)OCO3)no1 | i | -0.11
74 | Cc1cc(-c2csc(S(=O)(=O)N(Cc3cccs3)C3CCCC3)c2)on1 | i | 2.4
75 | CNCCC(Oc1cccc2ccccc12)c1cccs1 (stereo unspecified) | i | 0.49
76 | Cc1ccc(-c2cc(C(=O)N(Cc3ccc(C(C)C)cc3)C3CCS(=O)(=O)C3)no2)cc1C (stereo unspecified) | i | 1.1
77 | CCNC(=O)N1CCC2(C1)C(=O)N(C)c1ccccc12 (stereo unspecified) | i | -0.64
78 | Cc1ccc(C)c(Cn2nc3c(S(=O)(=O)N4CCCCCC4)cccn3c2=O)c1 | i | 0.66
79 | O=C(NC1CCCC1)C1CCN(c2ccc(-c3ccc(F)cc3)nn2)CC1 | i | 0.11
80 | CCOC(=O)c1[nH]c(C)c(CN(CC2CCCO2)C(=O)C2CCCCC2)c1C (stereo unspecified) | i | -0.02
81 | COC(=O)CC1=CC(SCC(=O)Nc2ccccc2)=Nc2ccccc2N1 | i | -1.1
82 | CCC(=O)Nc1ccc(N(C)CC2COCCO2)c(C(=O)O)c1 (stereo unspecified) | i | -0.49
83 | CC(C)(C)c1nnc(NC(=O)Nc2ccc3ccccc3n2)s1 | i | 0.8
84 | Cc1cccc(S(=O)(=O)NCCc2csc3nc(-c4cccc(F)c4)nn23)c1 | i | 0.34
85 | CC(=O)Nc1cccc(NC(=O)c2ccc(=O)n(Cc3ccccc3F)c2)c1 | i | 0.68
86 | Cc1nc2cc(-c3noc(C4(c5ccccc5)CC4)n3)ccc2n(C)c1=O | i | -0.22
87 | c1ccc(Cc2nc3c4c5c(sc4ncn3n2)CCCCC5)cc1 | i | 0.33
88 | CCN(CC)S(=O)(=O)c1ccc2c(c1)cc(C(=O)N1CCN(c3ccc(F)cc3)CC1)n2C | i | 1.1
89 | CNC(=O)CSc1nc2c(cnn2-c2ccc(Cl)cc2)c(=O)[nH]1 | i | 0.4
90 | Cc1ccc(Cc2c(C)nc3c(C(=O)NCCCN4CCOCC4)cnn3c2C)cc1 | i | 1.3

Further compounds:
entry | molecule | Choline anaer gr | Choline anaer gr early
91 | Cc1ccc(-c2nnc3c4c5c(sc4ncn23)CCCC5)cc1 | i | -1
92 | Cc1cc2c(cc1C(=O)NCCc1c[nH]c3ccccc13)OCCCO2 | i | -0.04
93 | CCn1c(C)c(CCC(=O)Nc2ccc(C(=O)OC)cc2)c(=O)n2nc(-c3ccccc3OC)cc12 | i | 0
94 | CCN1CCN(S(=O)(=O)c2cc(-c3nc(C(C)C)cs3)sc2C)CC1 | i | -0.8
95 | NCc1ccccc1CC(=O)N[C@@H]1C(=O)N2C(C(=O)O)=C(CSc3nnnn3CC(=O)O)CS[C@H]12 | i | -1.4
96 | O=S(=O)(c1cn(Cc2noc(-c3ccc(Br)cc3)n2)cn1)N1CCCCC1 | i | 0.85
97 | O=S(=O)(c1ccc(NCc2ccc3c(c2)OCO3)nn1)C1CCCCC1 | i | 0.62
98 | C=CCn1c(=O)c(=O)n(CCC(=O)NCCc2c[nH]c3ccccc23)c2ccccc21 | i | -0.83
99 | Cc1ccc(C)c(CSc2nc3cc(C(=O)NCC(C)C)ccc3c(=O)n2CC2CCCO2)c1 (stereo unspecified) | i | 0.82
100 | O=C(CN1C(=O)C2CCCCC2C1=O)N1CCN(c2ccccc2)CC1 (stereo unspecified) | i | -2.3
101 | O=C1CCCc2c1cnc1c2c(=O)[nH]c(=O)n1Cc1ccco1 | i | -0.21
102 | CN(C)CCCNC(=O)c1cc(-c2cccc(Br)c2)nc2ccccc12 | i | -1.2
103 | Cc1ccc(N(C)S(=O)(=O)c2ccccc2-c2nc(-c3ccccc3)no2)cc1 | i | -0.99
104 | COc1ccc(C2CCCN2C(=O)c2ccc3c(c2)OCO3)cc1 (stereo unspecified) | i | -0.48
105 | O=C(NC1CCCCC1)c1ccc2ccnc(N3CCN(c4ccc(Cl)cc4)CC3)c2c1 | i | -1.5
106 | COc1ccc(Cn2c(SCc3ccc(C(=O)NCC4CCCO4)cc3)nc3cccnc32)cc1 (stereo unspecified) | i | 1.4
107 | Cc1c(C(=O)Nc2cccc(Cl)c2)sc2ncnc(N3CCN(C)CC3)c12 | i | 0.06
108 | CCOC(=O)c1sc(NC(=O)c2nn(-c3ccc(Cl)cc3)ccc2=O)c(C(=O)OCC)c1C | i | -0.63

Exported as labelled records: entries from further up.
(91) Cc1ccc(-c2nnc3c4c5c(sc4ncn23)CCCC5)cc1
  Choline anaer gr: i
  Choline anaer gr early: -1

(92) Cc1cc2c(cc1C(=O)NCCc1c[nH]c3ccccc13)OCCCO2
  Choline anaer gr: i
  Choline anaer gr early: -0.04

(93) CCn1c(C)c(CCC(=O)Nc2ccc(C(=O)OC)cc2)c(=O)n2nc(-c3ccccc3OC)cc12
  Choline anaer gr: i
  Choline anaer gr early: 0

(94) CCN1CCN(S(=O)(=O)c2cc(-c3nc(C(C)C)cs3)sc2C)CC1
  Choline anaer gr: i
  Choline anaer gr early: -0.8

From PubChem BioAssay
